Screening data (PubChem BioAssay)
Autofluor counter – counter-screen for toxin protease inhibitors: compound fluorescence; compound autofluorescence counterscreen, microsphere flow cytometry; stronger effect = higher value; fluorescence intensity (concentration not given with the values); 3.1% of 360,000 active; AID 624483;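 active means at least 3 SD above the mean of all compounds, about 16000 in these data; inconclusive means too few beads counted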;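 further: 100 nL of 1 mM stock went into each well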
BJeLR lethal – kills HRASV12-expressing BJeLR cells; BJeLR (HRASV12) viability, CellTiter-Glo ATP luminescence, 48 h; reference of the scale not given here; inhibition, % (test concentration not listed); 0.17% of 300,000 active;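 active means replicate mean above 50%; inconclusive means above 50% but judged a plate artefact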;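 further: 50 nL library stock added to about 25 µL; numbers are from one replicate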
Mtb hypoxia inh – reduces hypoxia-regulated biosensor signal in M. tuberculosis; M. tuberculosis hypoxia-regulated fluorescent reporter, fluorescence; 0.1% of 300,000 active; fluorescence inhibition, % (no concentration beside the values); AID 1159583;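 active means 35 to 45% if threefold the growth effect, above 45% if 1.5-fold the growth effect; inactive means the rest, general growth blockers included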;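 further: wells of about 50 µL received 100 nL stock; 0% = vehicle wells and 100% = reference inhibitor wells; whole bacteria with a GFP reporter of the hypoxia response; strong numbers were not always called active; many hits fall short of the cut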
Sa ugtP lethal – compounds lethal to S. aureus RN4220 ugtP deletion mutant; growth inhibition, % (concentration not given with the values); OD600 growth, 16 h; some inactives read as strong as hits; 0.54% of 330,000 active;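 active means z-score under -3 and OD600 up to 0.15 on both plates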;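 further: plate controls were untreated wells for no effect and antibiotic for full effect; wells of about 80 µL received 100 nL stock; the first replicate is given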
RN4220 kill – kills Staphylococcus aureus RN4220 | S. aureus RN4220 growth, OD600, 16 h | inhibition, % (test concentration not listed) | 0.33% of 330,000 active | AID 1259311;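 active means z-score of -3 or lower and OD600 up to 0.18 on both plates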;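 further: plate controls were untreated cells for no effect and reference antibiotic for full effect; stock transfer was 100 nL into about 80 µL; one replicate is shown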
PrP UTR inh – suppresses PrP 5' UTR mRNA reporter expression; cell-based PrP 5' UTR mRNA reporter, plate reader; inhibition, % (no concentration beside the values); 0.35% of 340,000 active; AID 488862;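 active means every replicate at 50% or more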;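 further: 0 = median of the neutral control wells; tested in H4 reporter cells; numbers are from one replicate; inactives centre near -14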
Mtb hypoxia inh growth – recorded beside Mtb hypoxia inh, whose call it bears; growth inhibition, %; measured here: M. tuberculosis growth (absorbance);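 0% = vehicle and 100% = reference antibiotic; read after six days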
An asterisk follows results filed as active; ? = inconclusive; · = no result given; & = joins results of further samples.

SMILES	Autofluor counter	BJeLR lethal	Mtb hypoxia inh	Mtb hypoxia inh growth	Sa ugtP lethal	RN4220 kill	PrP UTR inh
C#CCNC(=O)C1CCN(c2ccc(S(=O)(=O)N3CCOCC3)cc2Cl)CC1	3433	8	12	2	5	7.7	-14
Cc1ccc(N2C(=O)CSC2c2ccccn2)cc1Cl (configuration not stated)	5971	14	9	0	3	1.9	-11
Cc1cc(S(=O)(=O)N2CCCC2)ccc1OCC(=O)N1CCC(C(N)=O)CC1	4013	9	9	9	2	4.4	-3
COc1ccc(CCN(C)C(=O)c2cnc(C)cn2)cc1OC	3591	7	8	-2	8	2.5	-7
Cc1cccc(-c2noc(CCCOc3ccc(Cl)cc3Cl)n2)c1	4756	5	·	·	5	-3.9	5
Cn1c(=O)n(CCCO)c(=O)c2c1nc1n2CCCN1Cc1ccccc1	4126	-9	1	-6	14	5.4	-1
O=C(CCS(=O)(=O)c1ccccc1)N(CCCN1CCOCC1)c1nc2c(F)cccc2s1	6511	4	20	9	11	7.1	-10
CCOC(=O)c1ccc(S(=O)(=O)N2CCN(C(C)=O)CC2)cc1	3312	3	-9	-1	-1	-2.4	8
COc1ccc2[nH]c(=O)c(CN(CC3CCCO3)C(=O)Nc3ccc(F)cc3)cc2c1 (configuration not stated)	3223	2	4	-6	20	20	-9
COC(=O)c1ccc(C23CC4(C2)[C@H](CN(Cc2ccc(C(F)(F)F)cc2)[C@@H]4c2ccccc2)C3c2ccccc2)cc1 (some centres not stated)	3005	-17	·	·	·	·	4
c1csc(CNc2ncnc3ccc(-c4ccc5c(c4)OCO5)cc23)c1	2886	·	0	2	2	0.1	-28
CCC(=NCCC(c1ccccc1)c1ccccc1)c1c(O)n(C)c(=O)n(C)c1=O	2798	21	13	3	58	-6.1	-17
CCCn1c(=O)c(C(=O)NCc2ccc3c(c2)OCO3)c(O)c2ccccc21	3727	-3	9	5	10	-4.4	-10
CC(/C=N/NC(=O)c1cccs1)=C\c1ccccc1	3445	-1	·	·	·	·	-56
O=C(Cn1nc(-c2ccccc2)ccc1=O)NCc1ccc2c(c1)OCO2	10832	-1	1	6	-7	5.6	-13
COc1ccc(SCC(Cc2ccccc2)N2CCC(NC(=O)OCc3ccccc3)CCC2=O)cc1 (configuration not stated)	·	·	13	5	3	-5.3	·
CC(C)Oc1ccc(/C=N/NC(=O)C2CCCN2S(=O)(=O)c2ccc(Cl)cc2)cc1 (configuration not stated)	2408	5	·	·	·	·	-20
Nn1c(Cc2cccc3ccccc23)nnc1SCCOc1ccc(F)cc1	2418	3	1	-2	-6	-4.9	-5
COc1ccccc1C1CCN(Cc2c(C)[nH]c3ccccc23)CC1	·	6	4	11	-14	-0.2	-17
CN(CC(Cc1ccccc1)N(CCN(CCc1ccccc1)N=O)N=O)N=O (configuration not stated)	·	·	4	9	9	13	·
Cc1nnc(SCC(=O)NC(=O)NCCC(C)C)s1	4355	3	-4	8	1	1.8	-25
COc1ccccc1C(=O)NCCC(=O)NCC1COc2ccccc2O1 (configuration not stated)	2949	·	1	2	-2	1.6	-12
COc1ccc(S(=O)(=O)N(C)CC(=O)Nc2ccc3c(c2)OCO3)cc1	12606	4	6	6	-2	2.1	-18
CCOc1ccc(C(O)=C2C(=O)C(=O)N(CCOCCO)C2c2ccccc2)cc1 (configuration not stated)	·	·	7	4	3	5.1	·
CCOc1ccccc1CNC(=O)c1nn(CC)cc1[N+](=O)[O-]	1985	3	6	2	-1	3.2	-20
NS(=O)(=O)c1ccc(NC(=O)N[C@@H](Cc2ccccc2)C(=O)O)cc1	3128	-13	0	14	-6	-10	-33
CC(=O)C[C@@H](O)CC(=O)[C@H]1OC(=O)[C@H](C)CCCCc2ccccc21	3305	·	-11	3	7	5.6	-18
Cc1ccc(N(CC(=O)N2CCc3ccccc3C2)S(C)(=O)=O)cc1	4101	-2	14	-3	1	-0.5	-39
COc1ccccc1NS(=O)(=O)c1cccc(C(=O)NN=Cc2ccc(OCC(=O)O)cc2)c1	·	·	-8	0	1	0.9	·
COc1ccc(NC(=O)N(C)CC2Oc3c(NC(=O)c4nc5ccccc5s4)cccc3C(=O)N(C(C)CO)CC2C)cc1 (configuration not stated)	·	·	-12	9	-28	-0.6	·
CC(C)=CCC[C@](C)(OC1OC(COC2OC(CO)C(O)C(O)C2O)C(O)C(O)C1O)C1CC[C@]2(C)C1C(=O)CC1[C@@]3(C)CCC(OC4OC(CO)C(O)C(O)C4O)C(C)(C)C3CC[C@]12C (some centres not stated)	·	·	3	4	-10	1.6	·
COc1cc(N)c(Cl)cc1C(=O)OCC(=O)N1CCCCCC1	8966	·	5	-1	1	2.8	2
COC(=O)Nc1nc(-c2ccccc2)c(C(=O)c2ccc(Cl)cc2)s1	2357	25	2	14	-19	-0.3	25
OCC1CCCN(C(=S)Nc2ccc(OC(F)F)cc2)C1 (configuration not stated)	10553	14	·	·	·	·	-33
O=C1OCCN1C(=O)[C@H]1[C@H](c2ccc(Cl)cc2)C(c2ccccc2)=NN1c1ccc(Br)cc1	3612	·	6	-1	25	-1.1	-15
Cc1nc2ccc(Cl)cc2c(-c2ccccc2)c1CC(=O)O	9735	8	11	12	7	6.5	-38
CC(=O)NCCNC(=O)C1CCCCN1S(=O)(=O)c1ccccc1 (configuration not stated)	4391	-6	-8	0	0	1.8	-11
O=C(Oc1ccc(N2C(=O)C3C4CCC(C4)C3C2=O)cc1)c1ccco1 (configuration not stated)	5977	-2	7	3	3	0.1	-3
Cc1ccccc1NCC(=O)NN=C/C=C/c1cccc([N+](=O)[O-])c1	·	·	2	3	-10	-4.5	·
CNC(=O)C1Cc2ccccc2CN1S(=O)(=O)c1ccc(OC)c(OC)c1 (configuration not stated)	3301	-4	5	5	9	2.8	-11

Compound profiles (already shown). Order of screens: Autofluor counter, BJeLR lethal, Mtb hypoxia inh, Mtb hypoxia inh growth, Sa ugtP lethal, RN4220 kill, PrP UTR inh
COc1ccc(SCC(Cc2ccccc2)N2CCC(NC(=O)OCc3ccccc3)CCC2=O)cc1 (configuration not stated) is listed with ·, ·, 13, 5, 3, -5.3, ·
O=C(CCS(=O)(=O)c1ccccc1)N(CCCN1CCOCC1)c1nc2c(F)cccc2s1 is listed with 6511, 4, 20, 9, 11, 7.1, -10
CC(C)=CCC[C@](C)(OC1OC(COC2OC(CO)C(O)C(O)C2O)C(O)C(O)C1O)C1CC[C@]2(C)C1C(=O)CC1[C@@]3(C)CCC(OC4OC(CO)C(O)C(O)C4O)C(C)(C)C3CC[C@]12C (some centres not stated) is listed with ·, ·, 3, 4, -10, 1.6, ·
Cc1ccc(N2C(=O)CSC2c2ccccn2)cc1Cl (configuration not stated) is listed with 5971, 14, 9, 0, 3, 1.9, -11
CN(CC(Cc1ccccc1)N(CCN(CCc1ccccc1)N=O)N=O)N=O (configuration not stated) is listed with ·, ·, 4, 9, 9, 13, ·

Next section
SMILES	Autofluor counter	BJeLR lethal	Mtb hypoxia inh	Mtb hypoxia inh growth	Sa ugtP lethal	RN4220 kill	PrP UTR inh
O=C(COC(=O)CCN=C1NS(=O)(=O)c2ccccc21)NC1CCCCCCC1	4694	-3	13	7	-1	6.1	-8
CCOC(=O)N1CCN(S(=O)(=O)c2cn(C)c(=O)n(C)c2=O)CC1	5480	-4	2	4	-3	1.5	-16
CC(C)C(=O)NC(=S)Nc1nnn(C)n1	1955	-16	11	0	7	2.3	1
COc1cccc(-c2cc(C(F)(F)F)n3nc(C(=O)N4CCCCC4c4cccnc4)cc3n2)c1 (configuration not stated)	4395	·	10	8	4	14	-7
O=C(Nc1ccc(Cl)cc1)[C@@H]1[C@@H]2C(=O)N(c3ccc(Cl)cc3)C(=O)[C@@H]2[C@H]2C=CC=NN21	8544	2	-10	-5	-11	-4.7	-22
CC1=Nc2nc(N3CCCCC3)c(C#N)c3c4c(nc(c23)N1)N(c1ccc(C(C)C)cc1)C(=O)C4	2343	2	-8	3	-7	4.1	-14
CN1CCN(S(=O)(=O)c2ccc(NCc3ccc4c(c3)OCO4)nc2)CC1	5483	11	15	11	-1	1.6	-14
Cn1ccnc1CN1CCCCC1C(=O)Nc1ccc(Oc2cccnc2)cc1 (configuration not stated)	6013	16	2	4	2	0.9	-20
O=C(c1ccc2nccnc2c1)N1CCN(c2ccccc2)CC1	5518	-2	5	7	3	-0.2	-6
O=C1CC(N2CCN(S(=O)(=O)c3ccc([N+](=O)[O-])cc3)CC2)C(=O)N1c1ccccc1F (configuration not stated)	4889	·	3	4	0	6.7	·
CC(C)c1cc(-c2cc(C(=O)NCc3ccccc3)on2)nc(NC2CCCC2)n1	3783	-2	3	-2	-11	-8.8	-23
CN(C)c1cc(NN=Cc2ccccc2)nc(N(C)C)n1	·	·	-11	-8	19	1.9	·
C(=N\Nc1nc2ccccc2[nH]1)/c1ccccn1	2259	54*	·	·	·	·	52*
COc1cc(S(=O)(=O)NC2CCCC2)c(OC)cc1C	5920	2	5	0	10	3.0	-8
CC(=O)c1ccc(NC(=O)C(C)n2c3ccccc3c3nc(=O)cc(C)n32)cc1 (configuration not stated)	5428	10	8	13	17	3.6	-20
Cc1c(C(=O)N2CCCCCC2)c(S(=O)(=O)Nc2ccccc2F)c(C)n1C	6101	9	-7	-2	-7	-4.7	9
CC1CCCCN1C(=O)C(=O)c1cn(CC(=O)N2CCCC2)c2ccccc12 (configuration not stated)	4308	8	5	1	-2	3.9	0
O=c1[nH]c2ccccc2nc1Cc1ccccc1	3398	-12	6	13	-5	4.8	-12
CN(C)CC/C=C1/c2ccccc2Sc2ccc(Cl)cc21	6116&4005	-4	16	14	-4	-1.7	-4
CCN(CC)C(=O)CSc1nnc(C2CCCCC2)o1	3607	7	16	-3	1	-1.0	1
COCC1CCN(C(=O)C2CCC(=O)N(CCc3ccc(Cl)cc3)C2)CC1 (configuration not stated)	5231	-2	4	11	2	-0.2	-10
O=C1Nc2cc(C(F)(F)F)ccc2N2CCCCC12 (configuration not stated)	3523	-2	7	5	4	4.5	-15
Brc1ccc(-c2cn3ccccc3n2)cc1	4526	8	10	-5	-1	2.4	-41
O=C(NCc1cccnc1)c1cccc2c1C(=O)N(Cc1cccnc1)C2	3853	3	12	18	-3	7.4	-24
O=C1COc2ccc(C(=O)COC(=O)c3ccccc3Cl)cc2N1	3170	·	18	7	-5	4.1	-8
Cc1ccc(/C=C/C(=O)OCC(=O)Nc2ccccc2Sc2ccccc2)cc1	2051	-4	-4	9	1	0.6	-10
Cc1ccc(NC(=S)Nc2ccc(Cl)c(Cl)c2)c(OC(F)F)c1	2572	8	7	8	100*	100*	-12
Cc1ccc(NC(=O)Nc2cnccn2)cc1	?	5	7	-4	3	-0.4	-25
COc1ccc(CN(C)C(=O)[C@H](Cc2ccccc2)NC(=O)c2ccco2)c(OC)c1	8555	·	7	0	2	1.5	-6
CC1(C(=O)N(CC(=O)NC2CCCC2)Cc2ccc(Cl)cc2)CC(=O)N=C2C=CC=CN21 (configuration not stated)	3096	-5	9	1	6	4.2	-17
CCOC(=O)/C=C1\SCC(=O)N1CC(=O)Nc1ccc(C(C)C)cc1	2964	-1	0	1	1	-1.4	-10
CC(C#N)(NC(=O)CN1CCN(S(=O)(=O)c2ccc(Br)cc2Cl)CC1)C1CC1 (configuration not stated)	3781	·	-4	0	3	3.1	-5
O=C(O)CCc1ccc(-c2cccs2)n1Cc1ccco1	4476	2	8	12	2	7.7	-1
CCOc1ccc(C2CC(c3ccc(F)cc3)n3ncnc3N2)cc1 (configuration not stated)	4079	-8	·	·	-2	1.2	12
Cc1cc(C)c2c(n1)nn1c(N3CCN(c4ccccc4C)CC3)cc(C)nc21	9243	·	3	20	-3	5.6	2
O=C(NC(Cc1ccccc1)C(=O)O)/C(=C\c1ccc(Cl)cc1)NC(=O)c1ccco1 (configuration not stated)	6353	-2	5	12	3	-0.3	-7
C=CCOC(=O)C1=C(C)NC(=O)NC1C=Cc1ccccc1 (configuration not stated)	·	·	5	9	0	1.4	·
Cc1c(NC(=O)/C(C#N)=C/c2cccs2)c(=O)n(-c2ccccc2)n1C	2172	-2	-10	7	9	0.9	-15
Cc1c(Cl)cccc1NC(=O)c1cc(-c2ccccc2O)n[nH]1	2572	5	2	7	14	-9.6	-59
Cc1ccc(S(=O)(=O)CCC(=O)OCC(=O)NC2CCS(=O)(=O)C2)cc1 (configuration not stated)	4692	-12	11	-3	2	1.5	-48
